MT1-MMP act inh – blockers of MT1-MMP proenzyme processing, primary screen, HT1080 RFP-PRO-GFP cells, GFP/RFP fluorescence. Matrix metalloproteinase-14 (Homo sapiens), P50281. GFP/RFP ratio fluorescence, overnight; percent of plate control window, DMSO zero. GFP/RFP ratio change, % at 20 µM. hit rate 0.061% among 360,000;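 active means GFP/RFP ratio change of at least 30% with cell ATP level not reduced by more than half and red fluorescence within 50% of control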; further: strong numbers were not always called active
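Assay system – RFP-PRO-GFP reporter HT1080 cells · Compound dosing – single dose of 20 µM compound, 1% DMSO final · Incubation – overnight compound exposure at 37 °C · Measure – GFP/RFP fluorescence ratio · Benchmarks – DMSO wells and RFP-L50D-GFP cells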
CSC inhib – cancer stem cell viability inhibitors, primary screen, luminescence. cancer stem cell-like cells viability. inhibition, % at 7.5 µM. hit rate 1.1% among 300,000. AID 2717, 2010;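 active means mean at 75% or more and at least half the replicates too; inconclusive means mean and replicates disagree; tested in HMLE shEcad cells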;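 further: 0% = median of negative and 100% = median of positive control wells; the first replicate is given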
Rce1 inh – yeast Rce1p protease inhibitors, primary screen, biochemical, fluorescence, cell-free homogeneous; CAAX prenyl protease 2 (Saccharomyces cerevisiae (strain ATCC 204508 / S288c)), Q03530; hit rate 0.27% among 290,000; yeast membranes, quenched prenylated peptide cleavage fluorescence; calls only; AID 2563, 2010;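 active means fall in fluorescence gain of 50% or more versus controls, with final raw signal at or below 3038400; inconclusive means same 50% fall but final raw signal above 3038400; inactive means fall in fluorescence gain under 50%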;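 further: plate controls were neutral control wells for no effect and wells lacking membranes for full effect; tested at 10 µM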
Target sequence (Q03530 whole entry, looked up): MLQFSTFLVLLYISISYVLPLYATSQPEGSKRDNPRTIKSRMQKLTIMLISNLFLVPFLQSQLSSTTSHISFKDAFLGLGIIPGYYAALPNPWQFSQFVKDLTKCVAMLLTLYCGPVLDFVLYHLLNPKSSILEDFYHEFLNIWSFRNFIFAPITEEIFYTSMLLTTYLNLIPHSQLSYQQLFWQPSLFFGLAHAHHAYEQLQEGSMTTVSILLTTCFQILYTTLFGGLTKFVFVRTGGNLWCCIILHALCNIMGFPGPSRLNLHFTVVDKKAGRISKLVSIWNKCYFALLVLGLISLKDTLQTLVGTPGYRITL
HIV Env fusion – inhibitors of HIV-1 Env-driven cell-cell fusion, primary screen, HeLa-JRFL effector, CEM21 target cells, luciferase; AID 651610, 2012; hit rate 1.1% among 360,000; inhibition, % at 12.3 µM;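 active means mean replicate inhibition score of at least 50 and every replicate individually at or above 50; inconclusive means only one of the two criteria met; inactive means mean below 50 and not all replicates reaching 50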;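 further: 0% = plate neutral controls and 100% = maraviroc near 300 nM; one replicate is shown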
UUG fidelity – modulators of yeast start codon fidelity, primary screen, whole organism, S. cerevisiae, single point, plate reader. hit rate 0.13% among 350,000. S. cerevisiae UUG-firefly luciferase reporter, luminescence/redox ratio. activity score, % at 18.7 µM;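 active means replicate mean at a twofold rise or more, about +100% in these data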;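 further: firefly luciferase made from a UUG start codon reports start codon fidelity; reporter light over untreated wells divided by growth signal over untreated wells; some hits fall short of that in this replicate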
PABP polyA inh – PABP poly(A) RNA binding inhibitors, primary screen, biochemical, fluorescence polarization, uHTS; Polyadenylate-binding protein 1 (Homo sapiens), P11940; inhibition, % at 35 µM; hit rate 1% among 290,000; AID 2014, 2009;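 active means 50% or more with normal probe brightness, or confirmed in later tests; inconclusive means above 50% with abnormal brightness, or retests that disagree; inactive means below 50% or failed in later tests; about a fifth of its hits are not listed in these tables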;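 further: calls also rest on retests at 20 µM and on dose response follow-up; controls were probe without protein and protein plus probe with vehicle; some compounds called inactive have numbers as strong as hits; many hits fall short of the cut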
eIF4H inh – human eIF4H binding inhibitors, primary screen, translation initiation inhibitor project, biochemical, uHTS, fluorescence polarization | Eukaryotic translation initiation factor 4H (Homo sapiens), Q15056 | eIF4H fluorescence polarization binding assay | inhibition, % at 35 µM | hit rate 0.94% among 290,000 | AID 2012, 2009;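 active means 50% or more with normal probe brightness, or confirmed in later tests; inconclusive means above 50% with abnormal brightness, or retests that disagree; inactive means below 50% or failed in later tests; about a fifth of its hits are not listed in these tables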;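 further: calls also rest on retests at 20 µM and on dose response follow-up; 0% = protein and probe with vehicle and 100% = probe without protein; strong numbers were not always called active; many hits fall short of the cut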
MT1-MMP act inh RFP – further read-out of MT1-MMP act inh, marked with its call; RFP signal change, %; measured here: RFP expression control read;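 0 = vehicle wells; hits needed this value within 50% of zero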
Active calls of the source: *; i = inactive; ? = inconclusive; . = not tested or not shown; & = joins results of further samples.

SMILES	MT1-MMP act inh	MT1-MMP act inh RFP	CSC inhib	Rce1 inh	HIV Env fusion	UUG fidelity	PABP polyA inh	eIF4H inh
COc1ccc(NC(=O)C2CCN(C(=O)[C@@H]3Cc4ccccc4CN3C(=O)OC(C)(C)C)CC2)cc1	1.9	2.7	-6.9	i	-6.5	-11.5	-5.1	-13.2
CC(C)(C)c1nc2cc(Cl)c([N+](=O)[O-])cc2o1	-0.1	1.6	.	i	-0.5	-10.4	3.0	-1.6
Cc1ncc([N+](=O)[O-])n1Cc1ccccc1F	2.8	6.8	-3.5	i	-8.3	13.8	2.3	-4.4
COc1ccc(C2=NOC(C(=O)NCc3ccco3)C2)cc1 (centres undefined)	-6.5	-10.3	.	i	4.4	-7.2	-2.6	-4.3
OCC1(CCc2ccccc2)CCN(Cc2c(F)ccc(F)c2F)CC1	-2.7	-3.2	-1.0	i	-2.1	.	-2.4	7.9
C[C@@H]1CN([C@H](C)CO)C(=O)CCCn2nncc2CO[C@H]1CN(C)C(=O)c1cc(-c2ccccc2)on1	-2.4	-0.7	.	.	10.5	-11.3&1.4	.	.
COc1cc(OC)c(C(=O)OCC(=O)N2CCN(S(=O)(=O)c3ccc(C)cc3C)CC2)cc1OC	-3.6	-1.3	.	.	-12.6	9.9	.	.
COc1ccc(S(=O)(=O)N2CCCCC2)cc1NC(=O)CCCOc1ccc(C)cc1	4.5	-4.2	2.0	.	70.5*	-10.0	.	.
CCOc1ccc(S(=O)(=O)N(CC(=O)Nc2cc(C)on2)Cc2ccccc2Cl)cc1	-0.2	-1.1	-2.6	i	.	.	2.0	-3.0
Cc1ccc(Cn2c(SCC(=O)N(C)C3CCS(=O)(=O)C3)nc3ccccc3c2=O)cc1 (centres undefined)	-1.1	-1.0	-0.2	i	.	.	.	.
NC(=O)c1ccccc1NC(=O)CC12CC3CC(CC(Br)(C3)C1)C2	-1.3	3.2	-16.0	i	3.0	-10.4	5.2	-4.9
CC(O)CNc1nc2ccccc2n1-c1ncnc2sc3c(c12)CCC3 (centres undefined)	12.7	2.6	-13.3	i	60.3*	-12.1	-15.6	-7.7
O=C1C=C(NNC(=O)c2cccnc2)CC(c2ccco2)C1 (centres undefined)	-6.6	7.8	.	i	3.8	.	-20.8	?
CC(=O)Nc1ccc(C(=O)N/C(=C\c2ccccc2)C(=O)Nc2cccc(C(=O)O)c2)cc1	2.6	6.6	0.2	i	-10.1	1.5	9.0	-11.2
CCN(C(=O)COC(=O)c1ccccc1Oc1ccccc1)c1c(N)n(Cc2ccccc2)c(=O)[nH]c1=O	-1.6	-1.0	.	.	0.0	-0.6	.	.
Cc1ccc(NC(=O)Nc2c(C)[nH]c(=O)[nH]c2=O)cc1Cl	3.2	4.0	3.6	i	-5.1	-22.3	-4.5	-9.9
COc1ccc(S(=O)(=O)N2CCN(c3ccc(F)cc3)CC2)cc1C(=O)N1CCOCC1	-3.1	1.7	0.0	i	20.3	-7.6	2.0	-3.8
CCOC(=O)c1ccc(NC(=O)c2c(Cl)cc(C)nc2C)cc1	6.2	-5.0	16.2	i	-2.3	-9.2	-6.0	-6.9
COC(=O)C1=C(C(=O)OC)[C@@H]2N(Cc3ccccc3)c3ccccc3[C@@]23C[C@@H](C(=O)OC)N(C(C)=O)C3=N1	-4.3	-1.8	7.0	i	4.5	-14.2	-13.6	3.4
CC(C(=O)N1CCc2ccccc21)N1CCN(Cc2ccccc2)CC1 (centres undefined)	2.8	4.5	-8.2	i	-23.7	-4.3	7.1	-7.4
CC(C)C[C@@H]1NC(=O)[C@H](Cc2ccccc2)N(C)C(=O)[C@H](C)NC(=O)c2ccccc2NC(=O)[C@H](Cc2ccc(O)cc2)N(C)C1=O	-25.9	-13.8	-8.4	i	.	-4.8	-2.4	-2.9
Cc1ccc([N+](=O)[O-])cc1N(CC(=O)NCC1CCCO1)S(C)(=O)=O (centres undefined)	-1.9	0.1	1.1	i	5.8	.	6.6	-4.2
CCCCOC(=O)C1=C(N)N2C(=O)C(C)SC2=C(C(=O)OCC)C1c1ccc(O)c(OC)c1 (centres undefined)	-0.1	2.4	13.3	i	28.3	.	-21.5	-4.3
CC1(C)Cc2ccccc2C(NN=C2CCCC2)=N1	-0.8	-5.3	-5.3	i	-19.3	.	-4.9	-2.8
O=C(Nc1sc2c(c1C(=O)NC1CC1)CCCCCC2)c1ccco1	-3.0	-2.4	.	i	2.2	-5.4	11.4	-9.0
NC(=NC(=O)c1ccccc1)C1=C(O)CCC1=O	3.4	2.5	4.5	i	.	-14.6	5.2	-2.5
CC1=C(C#N)C(NC(=O)c2ccco2)(C(F)(F)F)C(=O)N1 (centres undefined)	0.9	3.1	.	i	.	-0.7	-7.8	-8.0
O=C(CN1CCC2(CC1)OCCO2)c1c[nH]c2ccccc12	.	.	-12.8	i	.	.	5.8	-2.1
CC1=CC(C)C(C(=O)O)C(C(=O)Nc2cccnc2)C1 (centres undefined)	-2.1	0.0	-4.6	i	-6.5	.	4.8	-0.4
COCCCNc1nc2c(-c3cccc(C)c3)nnn2c2ccc(Cl)cc12	2.1	4.8	-0.1	i	-51.6	-6.6	3.2	1.5
CCOC(=O)c1ccccc1NC(=O)CN(c1ccccc1OC)S(C)(=O)=O	-2.1	-4.7	.	i	-23.3	-21.2	8.0	-7.3
Cc1ccc(C(=O)Nc2ccc3c(c2)OCO3)cc1Cl	3.0	0.4	6.9	.	-127.6	-14.5	0.0	-12.3
COc1ccccc1N(Cc1cc(=O)[nH]c2ccccc12)C(C)=O	0.6	1.9	-12.2	i	-2.4	-2.4	0.1	-7.8
Cc1ccccc1NC(=O)CSc1nc2ccccc2c(=O)n1C	4.5	-24.2	7.7	i	-2.8	-11.8	-7.9	3.3
Cc1ccccc1-c1cc(C(=O)NCc2cccs2)nn1CC1CC(c2cccc([N+](=O)[O-])c2)=NO1 (centres undefined)	0.0	-1.9	-2.0	.	-4.6	-10.7	.	.
CCC(C)NC(=S)Nc1ccccc1OC (centres undefined)	-1.7	2.7	-2.7	i	3.8	.	-14.1	1.2

Among those listed so far, these contain an aryl thioether with sulfur outside any ring:
SMILES	MT1-MMP act inh	MT1-MMP act inh RFP	CSC inhib	Rce1 inh	HIV Env fusion	UUG fidelity	PABP polyA inh	eIF4H inh
Cc1ccc(Cn2c(SCC(=O)N(C)C3CCS(=O)(=O)C3)nc3ccccc3c2=O)cc1 (centres undefined)	-1.1	-1.0	-0.2	i	.	.	.	.
Cc1ccccc1NC(=O)CSc1nc2ccccc2c(=O)n1C	4.5	-24.2	7.7	i	-2.8	-11.8	-7.9	3.3

Carrying on.
SMILES	MT1-MMP act inh	MT1-MMP act inh RFP	CSC inhib	Rce1 inh	HIV Env fusion	UUG fidelity	PABP polyA inh	eIF4H inh
CCOC(=O)c1c(C)nc(C)c(C(=O)OCC)c1-c1cccnc1	9.5	-0.6	-13.5	i	-28.3	-6.1	-6.6	1.9
CNc1cccc(-c2ccc(C(=O)N3CCOCC3)cc2)n1	10.4	8.4	.	.	-15.2	-23.7	.	.
CC(=O)c1cc2c(cc1NC(=O)Cn1nc(-c3ccc(C)cc3)ccc1=O)OCO2	0.5	-1.6	.	i	-29.7	0.1	2.0	-10.1
COc1ccc(F)cc1S(=O)(=O)NC1CCCCCC1	-0.5	-1.3	-1.5	i	.	-4.2	-8.0	-3.2
CCOc1ccccc1NC(=O)c1ccc(OCC)c([N+](=O)[O-])c1	7.6	3.8	-10.9	i	-9.5	.	-10.2	-2.0
N#CC1=C(N)Oc2c(ccc3ccccc23)C1c1ccsc1 (centres undefined)	-6.0	-8.9	.	i	-143.4	-16.0	20.9	9.8
O=C(OCc1nnc(-c2ccc([N+](=O)[O-])cc2)o1)C1CCN(C(=O)c2ccc(F)cc2)CC1	-4.0	-0.8	-8.8	.	.	-3.1	.	.
COc1ccc(NC(=O)CN(Cc2ccccc2)S(C)(=O)=O)cc1	3.6	1.2	-5.4	i	-7.7	-7.3	-6.1	1.5
COc1cc(C)cc(C(=O)O)c1C1=C(O)c2cccc(O)c2C(=O)C1=O	5.3	6.1	1.1	.	.	-13.8	.	.
CC(C)C1C(=O)N(Cc2cn(Cc3ccco3)nn2)CCS(=O)(=O)N1Cc1ccc(-c2ccc(F)cc2)cc1 (centres undefined)	-0.9	-5.9	.	.	10.2	6.9	.	.
Cn1c(CO)cnc1SCc1ccc(Cl)cc1	9.6	-4.3	-20.8	i	.	-16.2	3.7	-12.9
O=C(NC(=S)NNC(=O)c1ccco1)c1ccccc1	5.2	4.8	-3.1	i	4.8	-49.5	-1.5	7.3
CN(C)c1cccc(CNC(=O)c2csc([C@@H]3O[C@H](CO)[C@@H](O)[C@H]3O)n2)c1	1.7	1.2	.	.	-14.5	-14.3	.	.
CCn1c(-c2cccc(Br)c2)n[nH]c1=S	-2.0	-1.1	-7.5	i	.	-12.1	9.9	-11.8
CCOC(=O)N1CCC(NS(=O)(=O)c2cc3c(cc2C)NC(=O)CO3)CC1	3.6	0.0	-7.0	i	-32.7	-10.6	0.2	13.0
N#Cc1c(N2CCCCC2)nc(N)c2c(N)nc3c(c12)CC(c1ccccc1)O3 (centres undefined)	-6.2	-12.6	16.3	i	-118.8	-13.6	-8.8	-7.9
COc1ccc(Cl)cc1NC(=O)COC(C)=O	.	.	-9.3	.	-11.7	.	-6.0	5.7
O=C(NCCc1c[nH]c2ccccc12)/C(=C\c1ccco1)NC(=O)c1ccco1	-6.6	-2.0	-4.3	i	-29.5	-3.1	-8.1	0.7
NS(=O)(=O)c1ccc(CCNC(=O)COC(=O)C2COc3ccccc3O2)cc1 (centres undefined)	-1.0	2.4	-0.9	.	-3.7	-3.8	.	.
COc1ccccc1N1CCN(C(=O)c2ccc(N3CCCC3=O)cc2)CC1	-1.4	1.5	.	.	.	10.4	-0.8	2.1
O=C(Cc1csc(Nc2nc(=S)[nH]c3ccccc23)n1)N1CCN(c2cccc(C(F)(F)F)c2)CC1	2.7	2.1	70.4	i	-2.5	-7.6	-1.9	8.9
Cc1ccc(C(=O)Nc2cc(-c3ccn[nH]3)c(C)n(N)c2=O)cc1	-2.1	0.0	-8.9	i	-4.7	-30.9	4.3	0.6
O=C1CSC(=Nc2ccc(Cl)cc2)N1	-2.0	1.2	2.9	i	4.4	-9.5	-5.1	-9.9
CCC(C(=O)NCCCN1CCN(CCCNC(=O)C(CC)c2ccccc2)CC1)c1ccccc1 (centres undefined)	-1.3	5.0	-13.6	i	-11.0	5.3	5.0	-5.4
Cc1ccsc1/C=N/NC(=O)c1nnn(-c2nonc2N)c1CSc1ccccc1	1.6	-0.1	-11.0	i	0.2	-17.4	-4.2	4.8
Cc1ccc2c(c1)c1nnc(SCC(=O)NC3CC3)nc1n2C	-3.0	-2.2	.	i	-3.3	-6.3	3.5	3.1
CC(C)(C)CN1CCN(Cc2cc3ccccc3[nH]2)CC1CCO (centres undefined)	-1.7	2.5	-6.6	i	-3.4	-33.1	4.4	11.0
CN(C(=O)COC(=O)c1cc(Br)c(Br)s1)C1CCS(=O)(=O)C1 (centres undefined)	3.8	3.3	.	i	.	.	-2.9	-6.1

The list is partial, so the mix of outcomes need not match the whole.
